# PLK1 kinase inh: blocks human PLK1 kinase activity | AID 619 | 97,000 compounds, 0.53% hits | recombinant PLK1 kinase, TR-FRET peptide phosphorylation | inhibition, % at 10 µM | P53350;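 active = inhibition of 50% or more in the single-concentration screen; inactive = inhibition below 50%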;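 note: 0% = DMSO max control and 100% = H-89 dihydrochloride min control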
# Target sequence (P53350 whole entry, looked up): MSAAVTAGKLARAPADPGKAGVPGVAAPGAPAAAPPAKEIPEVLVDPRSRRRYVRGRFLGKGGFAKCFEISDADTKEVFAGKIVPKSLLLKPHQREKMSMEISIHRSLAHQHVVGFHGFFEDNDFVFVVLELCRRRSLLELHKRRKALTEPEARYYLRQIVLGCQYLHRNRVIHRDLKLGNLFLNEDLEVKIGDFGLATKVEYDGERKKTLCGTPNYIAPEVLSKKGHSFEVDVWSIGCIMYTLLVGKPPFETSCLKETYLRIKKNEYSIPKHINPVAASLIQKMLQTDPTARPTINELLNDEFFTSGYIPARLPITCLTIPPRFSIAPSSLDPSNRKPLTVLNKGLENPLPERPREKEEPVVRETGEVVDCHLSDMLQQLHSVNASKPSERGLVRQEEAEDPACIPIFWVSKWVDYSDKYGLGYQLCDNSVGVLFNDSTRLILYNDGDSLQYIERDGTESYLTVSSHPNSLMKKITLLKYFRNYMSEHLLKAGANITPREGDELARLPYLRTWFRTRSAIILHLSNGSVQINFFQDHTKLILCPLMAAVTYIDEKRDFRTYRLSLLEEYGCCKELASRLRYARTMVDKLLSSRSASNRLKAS
# PLAP act: activators of human placental alkaline phosphatase; P05187; AID 696; 96,000 compounds, 1.2% hits; activation fold at 20 µM; purified PLAP enzyme, luminescent substrate read-out; hits give high values; in the data active = activation fold above about 2
# HIV Rev-RRE inh: HIV Rev-RRE protein-RNA interaction inhibition; Rev peptide-RRE RNA binding, FRET; AID 704; 97,000 compounds, 0.79% hits; inhibition, % at 8 µM; P05866;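 active = inhibition above the screen-wide mean plus 3 SD, cut at about 35% in these data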;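 note: 0% = median DMSO wells and 100% = median Neomycin B control wells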
# Target sequence (P05866 whole entry, looked up): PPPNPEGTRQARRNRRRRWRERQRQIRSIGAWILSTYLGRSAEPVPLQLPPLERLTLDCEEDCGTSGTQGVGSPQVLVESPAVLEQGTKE
#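 Test system – labelled RRE RNA duplex and labelled Rev peptide · Signal – fluorescein-to-Cy5 FRET, 480 nm excitation · Evaluation – % inhibition of FRET ratio versus controls · Benchmarks – DMSO low control, neomycin B high control · Incubation – 5 min RNA-compound premix plus 15 min binding step, 25 °C · Medium – HEPES pH 7.5 salt buffer with EDTA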
# EphB4 antag: antagonists of human EphB4-ephrin-B2 interaction; P54760; EphB4 LBD / TNYL-RAW-Alexa532 peptide, fluorescence polarization; inhibition, % at 7 µM; 97,000 compounds, 0.15% hits; AID 720;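 active = inhibition above the screen-wide mean inhibition plus 3 SD, cut at about 15% in these data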;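 note: 0% = DMSO wells and 100% = excess unlabeled TNYL-RAW peptide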
# Plk1 PBD FP: inhibitors of human Plk1 polo box domain binding; P53350; Plk1 PBD phosphopeptide binding, fluorescence polarization; inhibition, %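 (tested at about 20 µM)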; 97,000 compounds, 0.13% hits; AID 693; in the data active = inhibition above about 34%, passing the limit was not always enough
# * marks the source's active call; other numbers are inactive results; . = no result given. Only part of the results is shown; the hit share may differ from the screen's.
SMILES,PLK1 kinase inh,PLAP act,HIV Rev-RRE inh,EphB4 antag,Plk1 PBD FP
COc1ccc(Cl)cc1NC(=O)C1CCCN(c2cc(C)nc3ncnn23)C1 (stereo unspecified),-3,1.7,9,-2,-13
O=C(c1ccccc1)c1c[nH]c(C(=O)NCCCn2ccnc2)c1,-8,1.5,11,2,3
COc1ccc(-c2cn3c(C)c(C(=O)NC(C)C)sc3n2)cc1,-14,1,4,5,-10
CC(O)CNCc1ccc(-c2ccccc2)cc1 (stereo unspecified),-6,1.1,2,-2,11
COc1ccc(S(=O)(=O)NC(CC(=O)NC2CCCC2)c2ccco2)cc1 (stereo unspecified),-13,1,-1,-1,15
CN(C)c1ccc(CNc2ncc(Br)cc2Br)cc1,-9,1.1,-2,0,-12
CC(=O)NC1CC2CCCC(C1)N2C(=O)Nc1ccccc1 (stereo unspecified),-8,1.1,3,1,2
N#Cc1cc2c(nc1SCC(=O)O)CCCC2,-11,1.3,4,-5,-16
CCS(=O)(=O)c1ccc2c(c1)N(S(=O)(=O)c1ccc(OC)cc1)CC(C(=O)O)O2 (stereo unspecified),-10,1,6,-9,-5
COc1cccc(/C=N/Nc2nc(N3CCCC3)nc(N3CCCC3)n2)c1O,-9,1.7,4,7,-32
CC(=O)N1CCc2cc(S(=O)(=O)CCC(=O)Nc3c(C)n(C)n(-c4ccccc4)c3=O)ccc21,-2,0.9,-1,-2,4
COc1ccc(CCNC(=O)CC(NS(=O)(=O)c2ccc(NC(C)=O)cc2)C(C)C)cc1OC (stereo unspecified),-2,1.1,-5,-3,-8
CCCc1cc(=O)oc2c(CN3CCOCC3)c(O)ccc12,-21,1.1,8,1,-19
CS(=O)(=O)n1nc(-c2ccccc2)nc1N,-4,0.8,6,12,2
Cc1ccnc(NC(=S)NC(=O)c2ccco2)c1,-12,1,-4,-4,-34
O=C(CSc1n[nH]c(-c2cccs2)n1)N1CCCc2ccccc21,12,1.1,5,0,-16
CC(C)(C)NC(=O)CN(Cc1cccs1)C(=O)C1COc2ccccc2O1 (stereo unspecified),-6,1,2,2,11
CCOc1nc(NC(C)C)nc(NC(C)C)n1,-4,1.1,7,9,23
Cc1ccc(S(=O)(=O)Nc2ccc(=O)n(Cc3ccc(Cl)c(Cl)c3)c2)cc1,-15,1.5,21,-1,-14
O=C(CCSCCc1ccncc1)NCCCN1CCOCC1,-11,0.9,9,4,5
Cn1cccc1CNC(=O)Nc1ccc(Cl)c(Cl)c1,-3,1,1,1,-15
CCN(CC)c1ccc(N2C(=O)/C(=C/c3cccnc3)SC2=S)cc1,-9,1.2,0,1,5
CCCc1nc(SCC(=O)Nc2nnc(CC)s2)c2c(C)c(C)sc2n1,-2,0.9,3,-1,-4
Cn1cc(/C=N/n2cnc3sc4c(c3c2=O)CCCC4)c2ccccc21,1,0.9,1,-8,-2

# Another view of some results above:
PLK1 kinase inh,PLAP act,HIV Rev-RRE inh,EphB4 antag,Plk1 PBD FP,molecule
-8,1.5,11,2,3,O=C(c1ccccc1)c1c[nH]c(C(=O)NCCCn2ccnc2)c1
-14,1,4,5,-10,COc1ccc(-c2cn3c(C)c(C(=O)NC(C)C)sc3n2)cc1
-6,1.1,2,-2,11,CC(O)CNCc1ccc(-c2ccccc2)cc1 (stereo unspecified)
-13,1,-1,-1,15,COc1ccc(S(=O)(=O)NC(CC(=O)NC2CCCC2)c2ccco2)cc1 (stereo unspecified)
-9,1.1,-2,0,-12,CN(C)c1ccc(CNc2ncc(Br)cc2Br)cc1
-8,1.1,3,1,2,CC(=O)NC1CC2CCCC(C1)N2C(=O)Nc1ccccc1 (stereo unspecified)
-11,1.3,4,-5,-16,N#Cc1cc2c(nc1SCC(=O)O)CCCC2
-10,1,6,-9,-5,CCS(=O)(=O)c1ccc2c(c1)N(S(=O)(=O)c1ccc(OC)cc1)CC(C(=O)O)O2 (stereo unspecified)
-9,1.7,4,7,-32,COc1cccc(/C=N/Nc2nc(N3CCCC3)nc(N3CCCC3)n2)c1O
-2,0.9,-1,-2,4,CC(=O)N1CCc2cc(S(=O)(=O)CCC(=O)Nc3c(C)n(C)n(-c4ccccc4)c3=O)ccc21
-2,1.1,-5,-3,-8,COc1ccc(CCNC(=O)CC(NS(=O)(=O)c2ccc(NC(C)=O)cc2)C(C)C)cc1OC (stereo unspecified)
-21,1.1,8,1,-19,CCCc1cc(=O)oc2c(CN3CCOCC3)c(O)ccc12
-4,0.8,6,12,2,CS(=O)(=O)n1nc(-c2ccccc2)nc1N
-12,1,-4,-4,-34,Cc1ccnc(NC(=S)NC(=O)c2ccco2)c1
12,1.1,5,0,-16,O=C(CSc1n[nH]c(-c2cccs2)n1)N1CCCc2ccccc21
-6,1,2,2,11,CC(C)(C)NC(=O)CN(Cc1cccs1)C(=O)C1COc2ccccc2O1 (stereo unspecified)
-4,1.1,7,9,23,CCOc1nc(NC(C)C)nc(NC(C)C)n1
-15,1.5,21,-1,-14,Cc1ccc(S(=O)(=O)Nc2ccc(=O)n(Cc3ccc(Cl)c(Cl)c3)c2)cc1
-11,0.9,9,4,5,O=C(CCSCCc1ccncc1)NCCCN1CCOCC1
-3,1,1,1,-15,Cn1cccc1CNC(=O)Nc1ccc(Cl)c(Cl)c1
-9,1.2,0,1,5,CCN(CC)c1ccc(N2C(=O)/C(=C/c3cccnc3)SC2=S)cc1
-2,0.9,3,-1,-4,CCCc1nc(SCC(=O)Nc2nnc(CC)s2)c2c(C)c(C)sc2n1
1,0.9,1,-8,-2,Cn1cc(/C=N/n2cnc3sc4c(c3c2=O)CCCC4)c2ccccc21

# Carrying on:
SMILES,PLK1 kinase inh,PLAP act,HIV Rev-RRE inh,EphB4 antag,Plk1 PBD FP
CN(C)C(=O)c1ccc(-n2nc(C(F)(F)F)c3c2CCCC3)cc1,-3,1.2,3,-2,-5
O=C(c1ccc(CN2CCc3ccccc3C2)cc1)N1CCc2ccccc2C1,-12,1,3,-6,-23
CC(=O)Nc1cccc(NC(=O)c2cc(-c3cccnc3)nc3ccc(Br)cc23)c1,0,1.2,2,10,-29
O=C(CC1CCCCC1)N1CCC(c2nc(-c3ccc(S(=O)(=O)N4CCCC4)cc3)no2)CC1,-3,1.4,1,-6,-1
Cn1cccc1CC(=O)N/N=C\c1cccs1,-4,1,3,-5,11
CCOc1c2ccc(C(=O)NCc3ccc(C)cc3)cc2nn1CC,-8,0.9,2,-4,0
O=c1cc[nH]c2cccc(Cc3ccccc3)c12,-7,0.9,8,2,-5
COC(=O)c1cc(OC)c(OC)cc1NC(=S)Nc1cccc(Cl)c1,-15,0.8,0,-3,23
S=C(Nc1ccccc1)Nc1ccc(OCc2ccccc2)cc1,-10,0.7,0,-8,12
Cc1cc(C)cc(CSCC(=O)N/N=C/c2ccc(OCC(=O)NCc3ccco3)cc2)c1,-12,1.1,5,2,-20
CCSc1ncccc1-c1nc2ccccc2[nH]1,-1,0.9,0,-3,-33
Cc1ccccc1-c1cc(C(=O)Nc2nc3c(s2)CCCC3)c2ccccc2n1,-4,1.4,2,-2,21
Cc1ccc2cc(C(=O)O)c(C)nc2c1,-6,1.1,6,3,5
CC(=O)NS(=O)(=O)c1ccc(NC(=O)NC2CCCCC2)cc1,-5,1.3,6,-1,3
Cc1cc(NC(=O)CSCCO)no1,-7,1.1,-2,10,23
COC(=O)[C@H](CCSC)NC(=O)NCc1ccccc1F,-3,1,2,-11,-25
CC(=O)Nc1ccc(Nc2ncc([N+](=O)[O-])c(Nc3ccc(NC(C)=O)cc3)n2)cc1,-6,0.9,0,1,-26
COc1ccc(C(CC(=O)Nc2ccc(F)cc2)c2ccccc2)cc1 (stereo unspecified),-9,1,7,-5,-34
O=C(NCc1ccc2c(c1)OCO2)c1cc(-c2ccc(Cl)cc2Cl)on1,-7,1.1,4,1,-26
Cc1ccc(Cn2c(SCC(=O)NCC3CCCO3)nc3c(sc4ccccc43)c2=O)cc1 (stereo unspecified),-11,0.9,8,-4,9
O=S(=O)(c1ccc(Cl)cc1)n1nnc2ccccc21,-8,1.1,2,-2,-20
CCC(=O)N(c1ccc(F)cc1)C1C=CS(=O)(=O)C1 (stereo unspecified),-16,0.9,4,3,17
O=[N+]([O-])c1ccccc1OCCCN1CCOCC1,-4,0.9,7,10,-34
CCOc1ccc(N=C2NC(=O)S/C2=C\c2ccc(OC)cc2)cc1,-11,1,1,6,6
COC(=O)Nc1ccc(=O)n(Cc2c(Cl)cccc2Cl)c1,-7,0.9,2,-1,0
COc1ccc(/C=C2\N=C(SC)SC2=O)cc1OC,10,1,8,-2,-25
S=c1nc(-c2ccccc2)[nH]n1-c1ccccc1,-5,1.1,3,-2,13
CCOc1ccc(/C(O)=C2/C(=O)C(=O)N(CC3CCCO3)C2c2ccc(C)o2)cc1 (stereo unspecified),-16,1.1,1,-9,-14
CCOc1ccc(-n2c(N)c(C(=O)NCC3CCCO3)sc2=S)cc1 (stereo unspecified),-12,1.1,-1,2,27
NC(=O)CNC(=O)[C@@H]1CC2(CC(c3ccc(Cl)cc3)=NO2)CN1C(=O)c1ccccc1 (stereo partly specified),-12,1.5,5,3,-4
O=C(CSc1nnc(Cc2cc(=O)[nH]c(=O)[nH]2)n1-c1ccccc1)N1CCCC1,-7,1.1,14,3,-13
CCC(=O)N1CCc2cc(S(=O)(=O)NC(C(=O)NCc3ccc(F)cc3)C(C)C)ccc21 (stereo unspecified),-9,1.4,8,6,-1
CCOc1ccc(NC(=O)CCSc2nnc(C)s2)cc1,-9,1,5,-10,33
COc1ccc2[nH]c(=O)c(CN(CCc3ccccc3)C(C)=O)cc2c1,0,1.1,7,4,-17
CCNC(=O)CN1c2cccc3cccc(c23)S1(=O)=O,-2,1,4,-1,23
Cc1cccc(NC(=O)c2ccc(Cn3cc(C(F)(F)F)ccc3=O)cc2)c1,-6,1,14,-1,-17
O=C(CCCCCn1c(=S)[nH]c2ccccc2c1=O)NCc1ccc2c(c1)OCO2,-14,0.9,-1,-6,12
CCOC(=O)C1CCN(C(=O)C2CCN(c3nc4ccc(OC)cc4s3)CC2)CC1,-12,1.3,4,-3,-1
C/C(=N\NC(=O)CSCc1ccc(Cl)cc1)c1ccc2c(c1)OCCO2,-11,0.9,4,-3,14
COc1cc(OC)c(C2C(C(=O)N3CCOCC3)=C(C)NC3=C2C(=O)CC(C)(C)C3)cc1OC (stereo unspecified),2,1.2,6,6,-15
CCn1c(=O)cc(SCC(=O)NCc2ccc3c(c2)OCO3)c2ccccc21,-5,0.8,6,9,1
O=C(O)C=C1CCN(c2ncc(C(F)(F)F)cc2Cl)CC1,-8,1.2,7,2,-5
O=C(COC(=O)c1ccncc1)NC(=O)C1CCCCC1,-8,1,8,0,-7
CCCCNC(=O)NS(=O)(=O)c1cnccc1Sc1ccc(Cl)cc1,-11,1.1,2,-1,-10
CCn1c(SCC(=O)N2CCOCC2)nc2oc3c(Cl)cc(Cl)cc3c(=O)c2c1=O,-10,1.2,9,0,-12
CCCCNC(=O)NNC(=O)c1ccoc1C,-6,1.1,4,3,22
CCOc1ccc(Cl)cc1/C=N/O,2,0.9,8,2,-4
CCNC(=O)C1CC(=O)N(c2ccc(OCC)cc2)C1 (stereo unspecified),.,1,.,.,.
CC(=O)n1cc(/C=N/NC(=O)c2sc(C)nc2C)c2ccccc21,12,1,0,2,13
COc1ccc(C(=O)Nc2ccc(Cl)cn2)cc1Cl,2,0.9,-4,2,-9
CCOC(=O)N1CCN(S(=O)(=O)Cc2ccccc2)CC1,-4,1,3,-1,22
COc1ccc(C2C(=O)N(C3CCCCC3)CC(=O)N2CC2COc3ccccc3O2)cc1 (stereo unspecified),-7,1,8,1,5
